miR-21 reporter: raises the signal of a miR-21 reporter | HeLa miR-21 FLuc reporter, luciferase, 48 h | Potency, µM (top dose mostly 38.3 µM), inactives show at the top dose reporter change, positive = more light | 340,000 tested, under 10 active; active = well fitted rising curve with a large enough effect; inconclusive = small, poorly fitted or top-dose-only effect; inactive = no such curve, though single readings can be large or run the other way;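 also: % of control where 0% means no effect; miR-21 action dims this reporter so a rising signal means less miR-21 action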
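HeLa miR-21-FLuc reporter line, endogenous miR-21; 2000 cells/well in DMEM/10% FBS; compound titration up to ~40uM final, 48 h, 37 degree Celsius; luciferase detection reagent, 15 min lysis, CCD luminescence.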
Rango complex inh: Rango-importin beta binding inhibition | Q14974 | Rango CFP/YFP FRET sensor + importin beta, 45 min | Potency, µM (top dose mostly 92.2 µM), for the others: top-dose inhibition of complex formation | hit rate 0.031% among 340,000 | AID 540263; active = rising FRET ratio curve, often small or poorly fitted; inconclusive = mostly compound fluorescence or quenching in the first reads; inactive = flat curves in all reads;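 also: potency is read from the fitted curve at half-maximal effect; 0% = DMSO wells and 100% = buffer wells lacking importin beta; nearly all actives have a fitted effect of over 15% in size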
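Inhibition scored from the CFP 486 nm/YFP 530 nm FRET ratio 45 min after adding 0.125 microM importin beta to 50 nM Rango biosensor preincubated 5 min with compound (room temperature, PBS with DTT, Tween-20, BSA). No-importin wells as positive control.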
GLA inh pH 4.5: alpha-galactosidase A (human) inhibition, pH 4.5 | purified enzyme, 4-MU-alpha-Gal fluorescence, pH 4.5 | activity change, negative = inhibition, % at 105 µM | 230,000 tested, under 10 active | AID 1467; inconclusive = small, poorly fitted or top-dose-only inhibition, or a rising curve; inactive = flat fitted curve, though single readings scatter; no compound was filed as active;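 also: 0% = full activity with enzyme and -100% = basal without enzyme; dose as in the result columns while the protocol names 77 µM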
Target sequence (P06280 whole entry, looked up): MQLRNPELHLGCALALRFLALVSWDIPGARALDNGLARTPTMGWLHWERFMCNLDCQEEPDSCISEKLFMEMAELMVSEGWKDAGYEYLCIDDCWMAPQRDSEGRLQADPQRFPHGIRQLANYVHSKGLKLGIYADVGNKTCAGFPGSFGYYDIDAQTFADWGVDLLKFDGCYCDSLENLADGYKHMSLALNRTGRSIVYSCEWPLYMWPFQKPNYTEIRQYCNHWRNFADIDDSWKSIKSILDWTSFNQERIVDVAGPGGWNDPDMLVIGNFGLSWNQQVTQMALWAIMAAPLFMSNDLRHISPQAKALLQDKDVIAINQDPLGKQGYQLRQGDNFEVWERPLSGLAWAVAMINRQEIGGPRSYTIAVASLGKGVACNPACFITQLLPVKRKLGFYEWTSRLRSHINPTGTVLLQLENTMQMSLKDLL
Rango release inh: prevents RanGTP from dissociating the Rango-importin beta complex. Biochemical FRET Rango-importin beta, RanGTP-induced dissociation. Potency, µM (doses to about 46.1 µM), without a hit: at the top dose activity change, negative = inhibition. hit rate 0.071% among 340,000. AID 540253; active means falling FRET ratio curve, often poorly fitted, with flat reads before Ran was added; inconclusive means other falling curves, or compound fluorescence or quenching; inactive means flat or rising ratio curve;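 also: potency is read from the fitted curve at half-maximal effect; % of control where 0% means no effect; nearly all actives have a fitted effect of over 45% in size; -100% = wells without RanGTP and RCC1; the record marks most hits as doubtful in a second field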
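Compounds sat 5 min at room temperature with 0.1 uM Rango biosensor plus 0.25 uM importin beta, then FRET pre-read. RanGTP-RCC1 (0.6 uM Ran, 2mM GTP, 0.2 uM RCC1) added for 45 min, and the CFP/YFP post-read measured blocked complex dissociation.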
Starred values were filed as active, the others as inactive; u = inconclusive; x = no result given; & = joins results of further samples; [ ] = another dose, or the depositor's remark.

SMILES	miR-21 reporter	Rango complex inh	GLA inh pH 4.5	Rango release inh
O=C(COC(=O)c1ccc2ncsc2c1)NCc1ccccc1Cl	x	-1.5%	x	-12%
O=C(CCNC(=O)C1CCN(S(=O)(=O)c2ccccc2)CC1)Nc1cccc(C(F)(F)F)c1	10%	4.1%	x	u
COC(=O)c1ccccc1NC(=O)Oc1ccc(C(C)C)cc1	-2%	-2.5%	2	-4%
CCOc1ccccc1NC(=O)CSc1ccc2nnc(-c3cccnc3)n2n1	-6%	0.4%	7	7%
Clc1cccc(C2Nc3cccc4cccc(c34)N2)c1Cl	4%	-0.2%	x	-3%
N#Cc1nc(-c2ccccc2F)oc1NCCN1CCOCC1	-10%	-4.1%	-4	7%
O=C1NCCCCC1NS(=O)(=O)c1cccc(C(F)(F)F)c1 (stereo not given)	0%	-2.4%	x	18%
Cc1ccccc1C(=O)Nc1c(C(=O)N(CCN(C)C)Cc2ccco2)oc2ccccc12	-1%	1.6%	x	3%
Cc1cc(C)n(-c2nnc3n2N=C(c2ccccc2)CS3)n1	-10%	-4.9%	0	13%
CC(=O)Nc1cccc(N(C(=O)C2COc3ccccc3O2)C(C(=O)NC2CCCCC2)c2cn(C)nc2C)c1 (stereo not given)	-11%	-1.0%	8	3%
CN(C)CCCN(C(=O)c1ccc(S(=O)(=O)N2CCc3ccccc3C2)cc1)c1nc2c(F)cc(F)cc2s1	x	2.7%	x	0%
COc1ccc(C(=O)NCCS(=O)(=O)NCc2ccc(C)cc2)cc1	x	u	x	9%
Cn1c(CC(=O)Nc2ccccc2)nnc1SCC(=O)c1ccccc1	0%	-0.1%	2	-9%
COc1ccc(C(=O)Cc2ccccc2C(=O)O)cc1	x	-1.5%	x	2%
COc1ccccc1CNCC(=O)Nc1ccccc1-n1cccc1	-3%	5.1%	5	u
CCOCCCNC(=O)C(NC(=O)c1ccc(=O)[nH]c1)c1ccccc1 (stereo not given)	2%	-1.5%	0	2%
COC(=O)c1ccc(C)c(NS(=O)(=O)c2ccc(NC(C)=O)cc2)c1	4%	-1.8%	1	-5%
COc1ccc(NC(=S)N2CCCC2c2ccc(OC)c(OC)c2)cc1 (stereo not given)	-13%	0.0%	2[21.1 µM]	18%
Cc1nc(-c2ccc(C(=O)O)cc2)cs1	-11%	-2.8%	1	4%
Cc1csc(=O)n1CCC(=O)OCC(=O)Nc1ccc(C(N)=O)cc1	x	1.2%	x	-2%
CCOc1cccc(CN2CCN(CCc3ccccc3)C(CCO)C2)c1O (stereo not given)	-3%	-4.0%	-18	3%
CCCCNC(=S)N(CCCO)Cc1cc2cc3c(cc2[nH]c1=O)OCCO3	2%	-4.4%	x	12%
CCOC(=O)c1ccccc1-c1cn2cc(Cl)ccc2n1	-21%	-1.9%	6	1%
O=C(CCN1C(=O)COc2ccccc21)NCc1ccco1	1%	2.5%	-4	-2%
CCCN1CCC(NC(=O)CC2C(=O)NCCN2Cc2cccc(OC)c2)CC1 (stereo not given)	-3%	6.6%	x	0%
CC(C)NC(=O)N(C)C[C@@H]1Oc2ccc(NC(=O)Nc3ccc(C(F)(F)F)cc3)cc2CC(=O)N([C@H](C)CO)C[C@@H]1C	x	1.7%	x	8%
O=C(CN1CCN(Cc2ccccc2)CC1)N=Nc1c(O)[nH]c2ccccc12	-16%	-7.7%	4	9%
COc1cc(Nc2c3ccccc3nc3ccccc23)cc(OC)c1OC	25%	-7.1%	x	-17%
COc1ccc(/C=C\C(=O)c2c(O)ccc3c(C)cc(=O)oc23)cc1OC	u	-0.5%	-3	-16%
COc1ccc(C)cc1NC(=O)CSCc1ccccc1C	0%	-0.6%	x	1%
COC(=O)C1=C(C(=O)OC)[C@@H]2N(C)c3ccc(OC)cc3[C@@]23C[C@@H](C(=O)OC)N(C(=O)c2cccs2)C3=N1	8%	0.2%	6	3%
CCCCN(C)Cc1cc(=O)oc2cc3c(cc12)CCCC3	-15%	-1.2%	-4	12%
OCCOc1ccc(CN2CCCC(N3CCN(c4ccc(F)cc4)CC3)C2)cc1 (stereo not given)	3%	0.6%	x	17%
S=C1NCN(Cc2ccco2)CN1Cc1ccco1	-1%	-1.4%	-2	23%
CCn1c(-c2ccccc2)c(C(=O)CC#N)c2ccccc21	-19%	-1.4%	-4	6%
O=C(CN1CCCC1)N/N=C/c1c(O)ccc2ccccc12	14%	u	x	u
O=C(NCC(=O)N(c1ccc(F)cc1)C(C(=O)NC1CCCCC1)c1ccncc1)c1ccco1 (stereo not given)	-8%	-1.5%	x	-2%
O=C(Nc1ccc2c(c1)OCO2)C1CCCN(c2nc3ccccc3s2)C1 (stereo not given)	2%	-3.0%	-10	4%
Cn1ccnc1SCC(=O)Nc1cccc(S(=O)(=O)N2CCCCCC2)c1	-5%	-0.3%	-4	-11%
COc1ccccc1CC(=O)N1CCN(C(=O)c2ccco2)CC1	1%	1.2%	x	-1%

Gathered by group, the entries above with a furan ring, fused or not (five)
SMILES	miR-21 reporter	Rango complex inh	GLA inh pH 4.5	Rango release inh
Cc1ccccc1C(=O)Nc1c(C(=O)N(CCN(C)C)Cc2ccco2)oc2ccccc12	-1%	1.6%	x	3%
O=C(CCN1C(=O)COc2ccccc21)NCc1ccco1	1%	2.5%	-4	-2%
S=C1NCN(Cc2ccco2)CN1Cc1ccco1	-1%	-1.4%	-2	23%
O=C(NCC(=O)N(c1ccc(F)cc1)C(C(=O)NC1CCCCC1)c1ccncc1)c1ccco1 (stereo not given)	-8%	-1.5%	x	-2%
COc1ccccc1CC(=O)N1CCN(C(=O)c2ccco2)CC1	1%	1.2%	x	-1%

More compounds follow.
SMILES	miR-21 reporter	Rango complex inh	GLA inh pH 4.5	Rango release inh
Cc1ccccc1N1CCN(C(=O)C2CCC(=O)N(C3CCCC3)C2)CC1 (stereo not given)	-2%	0.2%	x	5%
CCOc1ccc(NS(=O)(=O)c2ccc3c(c2)n(C)c(=O)n3C)cc1	2%	2.2%	x	3%
CCCC(=O)NNC(=O)Nc1ccccc1	-5%	-1.1%	0	-7%
O=C(Nc1cccc(NC(=O)c2ccccc2Cl)c1)c1ccc([N+](=O)[O-])o1	30%	-0.3%	x	4%
COc1ccc(OCc2nnc(SCC(=O)Nc3nnc(C4CC4)s3)n2C)cc1	-3%	1.8%	x	1%
Cc1cc(C(=O)CSc2ccc(Cl)cc2)cc(C)c1OC(=S)N(C)C	-43%	-1.1%	-8	-9%
Cc1cc(C)n2nc(SCn3nnc4ccccc4c3=O)nc2n1	-14%	-3.2%	1	-9%
CS(=O)(=O)N(CC(=O)N1CCCCCC1)c1cccc(F)c1	0%	-1.0%	x	12%
O=[N+]([O-])c1ccccc1CNc1ccc(F)c(Cl)c1	-14%	-0.7%	-10	-7%
Oc1ccc2ccccc2c1CNc1ccc(Br)cc1	0%	0.0%	x	-12%
CN(C)c1ccc(/C=N/NC(=O)CNC(=O)c2ccc3c(c2)OCCO3)cc1	-3%	1.2%	13	2%
COC(=O)C1=C(C)N(C)C(=O)NC1c1ccc([N+](=O)[O-])o1 (stereo not given)	3%	u	-10	u
COc1ccc2cc(C(=O)NCC(=O)O)sc(=O)c2c1OC	1%	-2.6%	-4	11%
O=[N+]([O-])c1ccc(CS(=O)(=O)N2CCN(c3ccccc3)CC2)cc1	-1%	-0.7%	x	-12%
CN(N)c1nc(-c2ccccc2)nnc1C(F)(F)F	-11%	-0.1%	3	-2%
O=C(c1ccco1)N1CCN(Cc2cccc3ccccc23)CC1	6%	1.1%	x	2%
NS(=O)(=O)c1ccccc1NC(=S)Nc1ccccc1S(N)(=O)=O	-3%	-1.4%	x	-8%
O=S(=O)(c1ccccc1Cl)N1CCCC1c1nc(-c2ccc(Cl)cc2)no1 (stereo not given)	11%	1.1%	-5	-5%
Cc1c(C2(O)CCCCC2)[nH]c2ncccc12	x	-1.1%	x	-1%
O=C(CC1CCCC1)Nc1cccc(Br)c1	-41%	2.9%	x	7%
CCOC(=O)c1c(NC(=O)CC)sc(C(=O)NC2CCCC2)c1C	-6%	-1.6%	x	4%
O=S(=O)(c1cccs1)N1CN(Cc2ccc(Cl)cc2)c2nc3ccccc3nc21	-21%	0.3%	1	7%
Cc1cc(C)c(NC(=O)COc2cccnc2[N+](=O)[O-])c(C)c1	x	-3.8%	x	-3%
COc1ccc2nc(NC(=O)c3ccc([N+](=O)[O-])o3)sc2c1	-20%	0.5%	x	4%
COC(=O)c1cc(OC)c(OC)cc1NC(=S)Nc1cccc(C(C)=O)c1	-15%	3.2%	1	-22%
Cc1ccccc1NC(=O)Cc1nc(COC(=O)c2cc(Br)ccc2O)cs1	x	-0.5%	x	-10%
COCCN1C=C(C(=O)OC)C(c2ccc(Cl)cc2)C(C(=O)OC)=C1	-2%	u	6	u
CCCCN(CC)CCNC(=O)c1nn(-c2ccc(OC)cc2)c(=O)c2c1c1ccccc1n2C	0%&-3%	0.0%	-10	0%
Cn1c(=O)c(C(=O)NCCCc2ccccc2)c(O)c2ccccc21	0%	-2.0%	x	5%
COc1ccc(C2C(C#N)=C(C)NC3=C2S(=O)(=O)c2ccccc23)cc1 (stereo not given)	-2%	u	-7	-24%
COc1ccc(Oc2nc(-c3ccccn3)ncc2OC)cc1	4%	2.7%	2	-8%
COc1ccc(OC)c(NC(=O)c2oc3ccccc3c2NC(=O)C2CC2)c1	2%	-4.2%	x	-2%
COc1ccc(C(=O)Nc2ccnn2C2CCN(Cc3cnn(C)c3)CC2)cc1	24%	1.2%	x	54%
COC(=O)c1sc(NC(=O)COc2ccc(C)cc2)nc1C	13%	-3.2%	6	-5%
C[C@@H](C(=O)NCc1ccccn1)[C@H]1C[C@]1(C)[C@H](NC(=O)OCc1ccccc1)c1ccccc1	0%	-3.2%	5&-6	-1%
O=C(COC(=O)c1n[nH]c2ccccc12)c1ccc(F)c(F)c1	x	7.5%	x	11%
CC(=O)C[C@H]1c2cc(C(F)(F)F)ccc2S(=O)(=O)N1Cc1ccccc1	x	0.3%	x	-16%
CCOC(=O)c1oc2cccc(O)c2c1CN1CCOCC1	-6%	-0.1%	9	-4%
Cn1c(=O)n(C/C=C/c2ccccc2)c(=O)c2c1nc1n2CCCN1c1ccc(F)cc1	4%	3.5%	-8	-3%
Cc1nnc(NC2(C(F)(F)F)C(=O)Nc3c2c(=O)n(C)c(=O)n3C)s1 (stereo not given)	0%	1.1%	-6	25%
Cc1ccc(OCCNC(=O)CNC(=O)c2ccc(C)c(C)c2)cc1	x	5.2%	x	-8%
O=c1[nH]c(C(Cl)Cl)nc2sc3c(c12)CCN(Cc1ccccc1)C3	-11%	u	7	u
CN(C)CCN(C)Cc1ccc2c(c1)Cc1ccccc1-2	-14%	x	1	x
CCC(C)[C@H](NS(=O)(=O)c1ccc(C)cc1)C(=O)N1CCC(C(=O)N2CCC(C(=O)OC)CC2)CC1 (stereo not given in full)	1%	5.4%	x	-1%
CC(C)[C@@H](N)C(=O)NCC1CCC(C(=O)N[C@@H](Cc2ccccc2)C(=O)O)CC1 (stereo not given in full)	-3%	-0.4%	x	6%
CC(C)c1nc(SCC(=O)Nc2ccc3c(c2)OCCO3)c2c(=O)n(C)c(=O)n(C)c2n1	-3%	1.2%	0	-3%
CSc1nc2c(cc1C#N)CCC2	-2%	-0.8%	4	12%
COc1ccc(CNc2ncnc(N)n2)cc1	-5%	-4.5%	11	1%
CCOC(=O)N1CCN(C(=O)c2cnsn2)CC1	-7%	4.0%	-1	-3%
O=C(Cc1ccccc1Cl)NCCCn1ccnc1	-5%	-5.0%	0	8%
C=CCc1cc(Cl)ccc1OCCNCCN1CCOCC1	-6%	-0.3%	1	-8%
Cc1nn(C(C)C(=O)NCc2ccccc2Cl)c(=O)c2c1sc1ccccc12 (stereo not given)	-3%	u	-2	4%
C/C(=N/NC(=O)c1cc(C)[nH]n1)c1ccco1	-35%	-1.2%	1	0%
CCO[C@@H]1OC(C(=O)N2CCOCC2)=C[C@H](C2CC2)[C@H]1CCCO	-1%	0.2%	-5	9%

Not all compounds are listed; rates above refer to the full screens.
